StopGo RLuc – lowers the Renilla signal of an FMDV 2A StopGo reporter; Potency, µM (titrated, usually from 57.5 µM), for inactives: at the highest dose signal change, negative = less light; AID 1745857; 120,000 tested, 0.32% active; HEK cells with a luciferase reporter of 2A StopGo recoding; active means well fitted falling curve with a large enough effect; inconclusive means small, poorly fitted or top-dose-only effect; inactive means no such curve, though single readings can be large or run the other way; also: nearly all actives have a fitted effect of over 55% in size; overnight with compound
StopGo FLuc – lowers the firefly signal of an FMDV 2A StopGo reporter; HEK cells with a luciferase reporter of 2A StopGo recoding; Potency, µM (series often up to 57.5 µM), for the others: top-dose signal change, negative = less light; 120,000 tested, 0.23% active; active = well fitted falling curve with a large enough effect; inconclusive = small, poorly fitted or top-dose-only effect; inactive = no such curve, though single readings can be large or run the other way; also: nearly all actives have a fitted effect of over 60% in size; overnight with compound
* hit, by the source's call; ? = inconclusive; & = joins results of further samples; [ ] = remark or other dose. % is scaled to controls: 0 for no effect and ±100 for the full control effect; potency is read from the fitted curve at half-maximal effect.

SMILES | StopGo RLuc | StopGo FLuc
CCn1cc(C(=O)NCc2ccccc2)c(=O)c2cc(S(=O)(=O)N3CCOCC3)ccc21 | -11% | -2%
C/C(Cl)=C/C[N+]1(CC#Cc2cccc3ccccc23)CCOCC1 | -18% | -17%
O=C1C2=C(Nc3ccccc3SC2c2ccc(Cl)c(Cl)c2)c2ccccc21 (stereo not given) | 251%[activator] | 0%
O=C(C1CCCN(S(=O)(=O)c2cccs2)C1)N1CCN(c2ccccc2F)CC1 (stereo not given) | 13% | -10%
CCCn1nc(S(=O)(=O)N2CCCCC2)c(C(=O)OCC)c1C | 39%[activator] | -4%
COc1ccc2c(c1)/C(=N/OC(=O)c1cc(Cl)ccc1SC)CCC2 | 13% | ?
CCc1nc(N)c(C#N)c(-c2cccs2)c1C | 28% | 0%
Cc1c(NC(=O)c2cccc(S(=O)(=O)N(C)C)c2)c(=O)n(-c2ccccc2)n1C | 3% | 2%
O=NN(CCCl)C(=O)NC1CCCCC1 | -9% | -12%
Cc1cccc(C(C)C)c1NC(=O)COc1ncnc2ccccc12 | 2% | 11%
COc1ccc(C(=O)NCC(=O)OCC(=O)c2cc(OC)c(OC)c(OC)c2)cc1OC | -8% | -6%
CC(C(=O)Nc1cccc(C#N)c1)n1nc(-c2ccccc2)c2c(c1=O)CCCC2 (stereo not given) | 19% | -11%
Cc1cccc(C(=O)Nc2ccc(C(=O)OCc3cc(=O)n4c(C)csc4n3)cc2)c1 | 0%&92% | 5%&0%
O=C(NCCCNC(=O)c1cc2ccccc2[nH]1)c1cccc(F)c1 | 42%[activator] | -10%
COc1ccc(Nc2cc(C(=O)NCCCN3CCN(c4ccc(OC)cc4)CC3)c3ccccc3n2)cc1 | ? | ?
COc1ccc(OC)c(CCNC(=O)CCc2cn(Cc3cc(C)ccc3C)c3ccccc23)c1 | -6% | -17%
Cc1ccc2oc(C(=O)NCCc3nc(-c4ccccc4)no3)cc(=O)c2c1 | -6% | -3%
CCOc1ccc(NC(=O)c2n[nH]c(=O)c3ccccc23)cc1OC | 5% | 104%[activator]
CC(NC(=O)CCC1CCCCC1)C1CC2CCC1C2 (stereo not given) | 6% | -4%
O=C(O)c1cc(-n2c(/C=C\c3ccc(F)cc3)nc3ccccc3c2=O)ccc1Cl | ? | ?
Cc1cc(OCC(=O)OCCOc2ccccc2)ccc1Cl | 5% | 19%
COC(=O)CN1C(=O)CSc2ccc(S(=O)(=O)Nc3ccc(C)c(N(C)C)c3)cc21 | 0% | ?
Cc1cc(OS(C)(=O)=O)cc2c1C(=O)/C(=C/c1cccnc1)O2 | 10% | 13%
CC(CNC(=O)C1CCN(C(=O)c2cc3sccc3n2C)CC1)c1ccccc1 (stereo not given) | 0% | -11%
COc1ccc(N2CCN(C(CNC(=O)c3ccc(C)cc3)c3ccc4c(c3)OCO4)CC2)cc1 (stereo not given) | 17% | 7%
Clc1ccccc1Cn1cccc1C1=NC(Cc2ccccc2)CO1 (stereo not given) | 13% | 9%
COc1ccc(OC)c(NC(=O)C2CCN(S(=O)(=O)c3c(C)noc3/C=C/c3ccc(C)cc3)CC2)c1 | -11% | -12%
COC(=O)c1ccccc1NC(=O)CCCn1c(C)c2cnn(-c3ccccc3)c(=O)c2c1C | -3% | -11%
N#C/C(=C\c1c(Oc2ccc(F)cc2)nc2ccccn2c1=O)c1nc2ccccc2s1 | -1% | -4%
COc1ccc(-c2nc(CN3C(=O)CN=C(c4ccccc4)c4ccccc43)c(C)o2)cc1 | 8% | -19%
Cc1ccc2oc(C(=O)NCCCOC3CCCCC3)cc(=O)c2c1 | 9% | 2%
Cc1c(C(=O)Nc2ccc(F)c(F)c2)oc2ccc(S(=O)(=O)N(C)C3CCCCC3)cc12 | 10% | -14%
CCC(C)c1ccccc1OCC(=O)Nc1ccc(S(=O)(=O)Nc2cc(C)on2)cc1 (stereo not given) | 17% | 3%
Cc1nc(-c2ccc(CCNC(=O)c3nccnc3N)cc2)cs1 | ? | ?
CSc1cccc(NC(=O)c2cc(=O)c(OCc3ccccc3F)co2)c1 | -1% | 12%
Cc1ccc(NC(=O)c2ccc(-c3cccc(Cl)c3C)o2)cc1 | 16% | 96%[activator]
Cc1ccc(Cn2c(C(=O)O)c(CNC3CCCCC3)c3ccc(C)cc32)cc1 | 6% | 314%[activator]
N#Cc1ccccc1COc1ccc(C(=O)c2ccccc2)cc1 | 25% | 184%[activator]
CNC(=O)c1ccc(CN(C(=O)Cn2c(C)cc3ccccc32)C2CC2)cc1 | -6% | -4%
CCn1cc(C(=O)N(C)Cc2ccccc2)c(=O)c2cc(S(=O)(=O)N3CCc4ccccc4C3)ccc21 | 142%[activator] | -12%
COc1ccc(-c2nc3c(s2)CN(C(C(=O)O)c2c[nH]c4cc(Cl)ccc24)CC3)cc1 (stereo not given) | -8% | -26%
O=C(Nc1ccc2c(c1)OCO2)c1cccn(Cc2cccc([N+](=O)[O-])c2)c1=O | -16% | 4%
CC(C)(C)c1cc(CCC(=O)NC2CC2)cc(C(C)(C)C)c1O | ? | -24%
CCOC(=O)c1ccc(NC(=O)C2Cc3ccccc3C(=O)O2)cc1 (stereo not given) | -7% | -8%
CC(C)C(NC(=O)c1ccc(Cl)cc1Cl)C(=O)NCc1cnn(-c2ccccc2)c1 (stereo not given) | 22% | 27%
Cc1ccc(-c2nn3c(N(C)C)cc(C)nc3c2C)cc1 | -8% | 4%
Cc1ccc(F)cc1NC(=O)CC(C)(C(=O)O)c1ccccc1 (stereo not given) | -3% | 16%
CCC(N)CC12CC3CC(CC(C3)C1)C2 (stereo not given) | -1% | 5%

Single records, as listed above. Order of screens: StopGo RLuc, StopGo FLuc
`CCn1cc(C(=O)NCc2ccccc2)c(=O)c2cc(S(=O)(=O)N3CCOCC3)ccc21` is listed as -11%, -2%
`COC(=O)c1ccccc1NC(=O)CCCn1c(C)c2cnn(-c3ccccc3)c(=O)c2c1C` is listed as -3%, -11%
`CCOc1ccc(NC(=O)c2n[nH]c(=O)c3ccccc23)cc1OC` is listed as 5%, 104%[activator]
`CC(C(=O)Nc1cccc(C#N)c1)n1nc(-c2ccccc2)c2c(c1=O)CCCC2` (stereo not given) is listed as 19%, -11%

(continued)
SMILES | StopGo RLuc | StopGo FLuc
COc1ccc(CCNC(=O)CCc2c(C)c3cc4c(C)coc4cc3oc2=O)cc1 | -12% | 7%
COc1ccccc1C(=O)OCc1cc(=O)n2nc(C3CC3)sc2n1 | -1% | 26%
Cc1nc2c(-c3ccc(F)cc3)c(C)nn2c(C)c1CCC(=O)NCc1cccc(Cl)c1 | -23% | -31%
COc1ccc2c(c1)c1c(c(=O)n(-c3cccc(Cl)c3)c(=O)n1CC(=O)NCC1CCCO1)n2C (stereo not given) | -8% | -6%
Cc1cc(=O)oc(C)c1C(=O)Nc1ccc(OC(F)(F)F)cc1 | 6% | 21%
COc1ccc(C(=O)NCC(c2cccs2)S(=O)(=O)c2ccc(C)cc2)cc1 (stereo not given) | 23% | -21%
CCc1cc2c(cc3c(=O)n(CCCC(=O)NCc4cccc(Br)c4)ncn32)s1 | 6% | ?
Cc1ccc(C(=O)COC(=O)c2ccccc2C(=O)c2ccc(-c3ccccc3)cc2)cc1 | 183%[activator] | 22%
Cc1cc(C)cc(NC(=O)C2CCN(c3nc4ccccc4nc3C(F)(F)F)CC2)c1 | -3% | -10%
CC(C)c1cc(C(=O)N2CCNC(=O)C2)c2ccccc2n1 | -11% | -2%
Cc1ccccc1NC(=O)c1c2c(nc3ccccc13)C(=O)N(C1CCCCC1)C2 | -11% | -23%
CC(C1CC1)N(C)CC(=O)NC(C)(C#N)C(C)C (stereo not given) | 2% | -5%
Cc1ccc2c(COC(=O)C3=NNC(=O)CC3)cc(=O)oc2c1 | -4% | -7%
Cc1ccc(S(=O)(=O)Nc2nc3ccccc3nc2Nc2ccc(C(=O)O)cc2)cc1C | -1% | 9%
Cc1ccc(C(NC(=O)c2ccccc2C)c2cccnc2)cc1C (stereo not given) | 45%[activator] | -1%
Cc1cc2oc(=O)cc(CSc3nncn3C(C)C)c2cc1C | 7% | 6%
Cc1cccc(NC(=O)c2c(C)cc(C)nc2SCC(=O)c2ccccc2)c1 | 161%[activator] | 3%
COc1cc2c(=O)n(CCC(=O)NCC3CCCO3)c(=O)n(CC(=O)Nc3ccc(C)cc3)c2cc1OC (stereo not given) | -6% | -1%
Cc1cc(C)n(C(=O)c2cccc(S(=O)(=O)N3CCOCC3)c2)n1 | -8% | -3%
CCc1cccc(C)c1NC(=O)c1cnn(-c2ccc(F)cc2)c1-n1cccc1 | -10% | -24%
Nc1ncc(S(=O)(=O)NCc2ccccc2)cn1 | 19% | 1%
COc1ccc(CCNC(=O)c2ccc3c(c2)ncn3-c2ccc(C(C)C)cc2)cc1OC | ? | ?
CCCNC(=O)NC(=O)CSc1nc(NC2CC2)c2ccccc2n1 | 2% | 19%
CCCC(C)NC(=O)COC(=O)c1nn(-c2ccccc2)cc1OC (stereo not given) | 8% | 19%
O=c1[nH]nc(-c2ccco2)c2c1Nc1nnnn1C2c1ccc(Cl)cc1Cl (stereo not given) | -16% | -12%
Cc1ccc(C)c(NC(=O)C(c2ccccc2)N2CCC(c3nc(C4CC4)n[nH]3)CC2)c1 (stereo not given) | 18% | ?
Cc1c(C(=O)c2ccc(C(C)(C)C)cc2)sc(Nc2ccccc2)c1C#N | 13% | 47%[activator]
O=C(CNC(=O)c1ccc(Cl)cc1Cl)NCc1cnn(-c2ccccc2)c1 | 4% | 17%
Fc1cccc(-n2ncc3c2ncn2nc(-c4ccccc4Cl)nc32)c1 | -1% | 35%[activator]
CC(C)CCNC(=O)C1CCNCC1 | 7% | 7%
COc1ccc(C)cc1NC(=O)C(Cc1ccccc1)NS(=O)(=O)c1cccs1 (stereo not given) | 167%[activator] | 16%
Cc1oc(-c2ccccc2)nc1C(=O)N1CCN(C(=O)c2ccco2)CC1 | -3% | 4%
CCCN(CCC)C(=O)Cn1c(=O)n(CCCCCC(=O)NCc2ccccc2Cl)c(=O)c2sccc21 | 0% | -4%
CCCn1nc(C(=O)Nc2cccc(S(=O)(=O)N(C)C)c2)c2ccccc2c1=O | 50%[activator] | 37%[activator]
Cc1ccc2onc(CC(=O)N3CCN(c4cc(Cl)ccc4C)CC3)c2c1 | -14% | -10%
C#CCNC(=O)CSc1cccs1 | 16% | 22%
Cn1nc(-c2ccc(C(=O)Nc3cccc(C(F)(F)F)c3)cc2)c2ccccc2c1=O | -4% | -3%
N#Cc1ccc(COC(=O)c2ccc3c(c2)OCCO3)cc1 | 1% | 46%[activator]
COc1ccc(-c2noc(N3CCC(C(=O)N4CCN(c5ccccc5OC)CC4)CC3)n2)cc1 | -2% | -29%
COc1ccc2cc(/C=C(/C#N)c3nc4ccccc4[nH]3)ccc2c1 | 10µM* | 225%[activator]
Cc1noc(C)c1S(=O)(=O)N1CCC(C(=O)Nc2ccc(Br)cc2)CC1 | -13% | -13%
CN(C)CCCn1c(-c2ccc(COc3ccc(Br)cc3)o2)n[nH]c1=S | 10% | 0%
Cc1ccccc1C1CC(=O)N(c2ccc(C(F)(F)F)cc2)C2=C1C(=O)CCC2 (stereo not given) | 30% | 2%
CCOC(=O)c1c(S(=O)(=O)N2CCC(C(=O)Nc3ncccc3C)CC2)c(C)n(C)c1C | -3% | -13%
Cc1c(C#N)c(NC(=O)CSc2nncn2-c2ccccc2)n(Cc2ccco2)c1C | ? | ?
N#Cc1ccccc1NC(=O)C(=O)NCC(c1cccnc1)N1CCc2ccccc2C1 (stereo not given) | -3% | 7%
COc1ccc(CNC(=O)Cn2ccc3cc(S(=O)(=O)N4CCCCC4)ccc32)c(OC)c1 | 55%[activator] | 14%
CCN(Cc1cccs1)C(=O)Cc1c[nH]c2ccccc12 | 51%[activator] | 31%[activator]
CC(=O)c1ccc(NC(=O)c2cc(-c3ccc(C)s3)nc3ccccc23)cc1 | -6% | -10%
COc1cccc(CNC(=O)c2cnc(N3CCCCC3)c3ccccc23)c1 | 32%[activator] | -6%
CC(C)Cn1nc(C(=O)N2CCc3ccccc32)c2ccccc2c1=O | 36%[activator] | 4%
CCOC(=O)c1cc(NC(=O)c2ccccc2)c(=O)n2c1oc1ccc(Cl)cc12 | 7% | 3%
Cc1cccc(OC(=O)c2cc(-c3ccc(Cl)cc3)on2)c1C | -5% | 1%
Cn1c(=O)c2c(ncn2CC(=O)OCC(=O)NCc2ccc(F)cc2)n(C)c1=O | -9% | -9%
Cc1ccc(S(=O)(=O)NCCc2nnc3ccc(SCc4ccc(Cl)cc4)nn23)cc1 | 81%[activator] | -7%
CN[C@H]1CC[C@@H](c2ccc(Cl)c(Cl)c2)c2ccccc21 | -10% | -19%[11.5 µM]
O=C(CSc1ccc2ccccc2n1)NCCc1ccc(Cl)cc1 | 0% | 8%
CNc1oc(-c2ccccc2F)nc1S(=O)(=O)c1ccc2c(c1)OCCO2 | 190%[activator] | -3%
Cc1nc2cc(NS(=O)(=O)c3cccc(F)c3)ccc2o1 | 70%[activator] | -4%

Fetched one by one from the list above:
SMILES | StopGo RLuc | StopGo FLuc
Cn1c(=O)c2c(ncn2CC(=O)OCC(=O)NCc2ccc(F)cc2)n(C)c1=O | -9% | -9%
CCOC(=O)c1cc(NC(=O)c2ccccc2)c(=O)n2c1oc1ccc(Cl)cc12 | 7% | 3%
CC(C)Cn1nc(C(=O)N2CCc3ccccc32)c2ccccc2c1=O | 36%[activator] | 4%
Cc1cccc(OC(=O)c2cc(-c3ccc(Cl)cc3)on2)c1C | -5% | 1%
Cc1nc2cc(NS(=O)(=O)c3cccc(F)c3)ccc2o1 | 70%[activator] | -4%
Cc1ccc(S(=O)(=O)NCCc2nnc3ccc(SCc4ccc(Cl)cc4)nn23)cc1 | 81%[activator] | -7%
CC(=O)c1ccc(NC(=O)c2cc(-c3ccc(C)s3)nc3ccccc23)cc1 | -6% | -10%

Compound activity deposited in PubChem by National Center for Advancing Translational Sciences (NCATS).

These rows are one share of the data (hit frequency here may not be typical).
